Compound activity from PubChem.
HCMV NEC inh: disrupts HCMV UL50-UL53 complex binding. inhibition, % (no concentration beside the values). 0.15% of 190,000 active. HTRF UL50-UL53 interaction, normalized percent inhibition;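 active = both replicates at 50% or more, plus weaker picks with an unusually low signal ratio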;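 also: stock transfer was 100 nL into about 20 µL; 0% = negative control wells and 100% = wells with untagged competitor protein; inactives centre near -12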
GIV Gai3 FP: inhibitors of GIV GBA-motif binding to rat Galpha-i3. 0.42% of 210,000 active. percent of control (FP), % (test concentration not listed). P08753. Galpha-i3/FITC-GIV peptide fluorescence polarization, 90 min; stronger effect = lower value; scaled: aluminum fluoride 0%, vehicle 100%;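 active = replicate mean at 85% of control or lower, very high polarization wells dropped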;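 also: wells of about 15 µL received 100 nL stock; the first replicate is given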
Target sequence (P08753 whole entry, looked up): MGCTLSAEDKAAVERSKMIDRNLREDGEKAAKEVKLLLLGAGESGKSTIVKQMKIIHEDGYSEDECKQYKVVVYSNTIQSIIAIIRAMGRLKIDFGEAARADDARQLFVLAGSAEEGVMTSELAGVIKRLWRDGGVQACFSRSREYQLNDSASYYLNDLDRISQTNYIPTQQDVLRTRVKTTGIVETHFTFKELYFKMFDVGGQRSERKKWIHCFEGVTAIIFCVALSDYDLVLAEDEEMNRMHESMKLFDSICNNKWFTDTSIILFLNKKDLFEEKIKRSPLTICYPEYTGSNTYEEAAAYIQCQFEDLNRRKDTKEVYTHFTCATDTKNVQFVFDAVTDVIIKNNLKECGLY
Sa growth 42C: inhibitors of Staphylococcus aureus growth at 42 °C; AID 720641; 0.53% of 170,000 active; relative growth, % (no concentration beside the values); S. aureus RN4220 growth, OD600, 20 h; stronger effect = lower value;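 active = growth at 42 °C up to 50% and 20 or more points under that at 30 °C, or under 10% at both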;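 also: 300 nL library stock went into each well; scaled to the means of positive and negative controls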
Sa growth 42C second temp: also measured in Sa growth 42C; calls as there; relative growth, %; measured here: growth at 30 °C;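 optical density after 20 h as mean of two plates; 100% = untreated growth and lower means inhibition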
Starred values were filed as active, the others as inactive; · = not tested or not shown; & = joins results of further samples. Random draw from the library (roughly 0.83% active in at least one column).

SMILES | HCMV NEC inh | GIV Gai3 FP | Sa growth 42C | Sa growth 42C second temp
O=C(c1cc2sccc2n1Cc1ccccc1)N(Cc1ccco1)Cc1cccs1 | 11 | 103 | 111 | 80
CC(=O)Nc1ccc(NC(=O)CCCc2nc(-c3ccc(C(C)(C)C)cc3)no2)cc1 | -16 | 100 | 99 | 90
CCOc1ccc(CNS(=O)(=O)c2ccc3[nH]c(=O)ccc3c2)cc1 | · | 105 | 107 | 85
Cc1ccc(NC(=O)c2ccc3c(=O)n(Cc4ccco4)c(=S)[nH]c3c2)cc1Cl | · | 99 | 114 | 86
CN(C(=O)CSc1nc2c(c(=O)[nH]1)CCC2)C1CCCCC1 | -18 | 101 | 104 | 89
CC(C)(CNC(=O)c1cccc(S(=O)(=O)N2CCOCC2)c1)N1CCOCC1 | -12 | · | 77 | 91
CC(=O)OCCCc1nc2ccccc2n1C(C)=O | -39 | · | 109 | 83
O=C(NCCS(=O)(=O)N1CCCC1)c1ccc2c(c1)OCO2 | -27 | 101 | 94 | 89
Cc1ccc(C)c(Cn2ncc3ccccc32)c1 | · | 104 | 115 | 76
COc1ccc(N2C(=O)CCC(C(=O)NCC3CCCO3)C2c2ccc(F)cc2)cc1 (stereo not given) | · | 102 | 105 | 89

Sorted by value in Sa growth 42C second temp (smallest number first): 3 of the compounds above.
structure	Sa growth 42C second temp
O=C(c1cc2sccc2n1Cc1ccccc1)N(Cc1ccco1)Cc1cccs1	80
Cc1ccc(NC(=O)c2ccc3c(=O)n(Cc4ccco4)c(=S)[nH]c3c2)cc1Cl	86
COc1ccc(N2C(=O)CCC(C(=O)NCC3CCCO3)C2c2ccc(F)cc2)cc1 (stereo not given)	89

(list continues)
SMILES | HCMV NEC inh | GIV Gai3 FP | Sa growth 42C | Sa growth 42C second temp
S=C1N(CN2CCCCC2)CCN1CN1CCCCC1 | -41 | · | 66 | 90
Cc1ccc(-c2nc(SCC(=O)NCc3ccco3)c3c(=O)n(C)c(=O)n(C)c3n2)cc1 | · | 98 | 97 | 92
COc1cc(OC)c(NC(=O)CSc2nc3ccncc3[nH]2)cc1Cl | 12 | 101 | 91 | 80
O=C(COc1cc(Cl)c(Cl)cc1Cl)NCCN1C(=O)CSC1=O | 11 | · | 89 | 93
Oc1ccc(-c2cn3c4ccccc4n(CCN4CCOCC4)c3n2)cc1 | -15 | 98 | · | ·
CSc1ccc(/C=C/c2nc3ccccc3n2S(=O)(=O)c2ccc(F)c(C)c2)cc1 | · | 100 | 83 | 18
Cc1ccccc1OCC(=O)Nc1ccccc1C(=O)OCc1cc(=O)n2ccsc2n1 | · | 111 | 101 | 102
CCC(Sc1nnnn1-c1ccccc1)C(=O)N1c2ccccc2Sc2ccccc21 (stereo not given) | · | 107 | 112 | 98
CCCN1C2CCCC1CC(NC(=O)c1cc(OC)c(OC)c(OC)c1)C2 (stereo not given) | -16 | 100 | 82 | 84
CC(C#N)Sc1nnc(-c2cccc(S(=O)(=O)Nc3ccccc3Cl)c2)n1-c1ccccc1 (stereo not given) | -1 | · | 96 | 80
CSc1c(C#N)c(N)c(C#N)c2c1COC(C)(C)C2 | -7 | 100 | 90 | 96
CC(C)CNC(=O)CSc1ccc2c(c1)OCCO2 | 32 | · | 109 | 111
O=C(NCCc1ccccc1)c1nnc(Cc2cccc(F)c2)o1 | 6 | 106 | 90 | 95
O=C(O)c1cc(=O)c2ccccc2[nH]1 | -19&-2&-16 | 101 | 98 | 88
COc1ccc(C2c3c(n(C)c4ccccc34)C(=O)N2CC(=O)NCCc2ccccc2OC)cc1 (stereo not given) | -7 | 102 | · | ·
COC(=O)C(C)Sc1ncnc2c1sc1nc(N3CCOCC3)c3c(c12)CCCC3 (stereo not given) | 8 | 110 | 80 | 106
Cc1ccc(CCNC(=O)CN(c2cc(C)cc(C)c2)S(=O)(=O)c2c(C)noc2C)cc1 | -4 | 110 | 82 | 101
CCN(CCO)C(=S)Nc1cc(C(=O)OC)ccc1C(=O)OC | -28 | 101 | 88 | 75
Cc1ccc(Cn2c(=O)n(-c3ccc(C)cc3)c(=O)c3c2c2cc(C)ccc2n3C)cc1 | · | 106 | 96 | 89
COc1ccccc1Cn1c(CNS(=O)(=O)c2ccc3c(c2)CCCC3)nc2cccnc21 | · | 111 | 88 | 91
COc1ccc(-n2c(=O)c3c(c4cc(OC)ccc4n3C)n(Cc3cccc(C)c3)c2=O)cc1 | · | 105 | 110 | 96
COc1ccc(NC(=O)C2CC(=O)N(c3cccc(-c4noc(C)n4)c3)C2)c(OC)c1 (stereo not given) | -32 | 97 | · | ·
CCc1ccc2[nH]c(=O)c(CN(Cc3ccco3)C(=O)Nc3ccccc3)cc2c1 | -6 | 100 | 108 | 89
C/[N+]([O-])=C\c1ccc(-c2ccccc2)cc1 | -111 | · | 102 | 94
Cc1nnc(NC(=O)CSc2nc3c([nH]c4ccccc43)c(=O)n2-c2ccc(F)cc2)s1 | 2 | 111 | 92 | 96
CCOC(=O)C1=C(CNC(C)C)NC(=O)NC1c1ccccc1 (stereo not given) | -20 | 112 | 96 | 90
COc1cc(-c2nc3ccccc3c(=O)n2NC(=O)/C=C/c2ccc([N+](=O)[O-])cc2)cc(OC)c1OC | -28 | 105 | · | ·
Cc1ccccc1-c1noc(-c2ccc(NCc3ccco3)c([N+](=O)[O-])c2)n1 | -24 | 105 | 84 | 81
Cc1onc(-c2ccccc2)c1C(=O)Nc1ccccc1 | -27 | · | 92 | 86
Cc1ccc(S(=O)(=O)c2cn(CC(=O)Nc3ccccc3C)c3cc4c(cc3c2=O)OCO4)cc1 | -23 | 103 | 94 | 86
CCOc1ccc(N2C(=O)Nc3ccccc3C2(O)C(=O)N2CCCC2)cc1 (stereo not given) | -6 | 110 | 97 | 97
CCOC(=O)c1cc(C)n(C)c1C | -47 | · | 112 | 80
O=C(CCC1CCCC1)N1CCN(C(=O)Cc2ccccc2)CC1 | -1 | 100 | 83 | 112
CCCOc1cccc(C2C3=C(CC(C)(C)CC3=O)Nc3ccccc3N2C(=O)C(F)(F)F)c1 (stereo not given) | -16 | 101 | · | ·
CC(=O)N1c2ccc(S(=O)(=O)N3CCC(C(=O)NC4CCCC4)CC3)cc2CC1C (stereo not given) | -33 | 100 | 89 | 87
Cc1ccsc1C(=O)Nc1cc(-c2noc(C3CCC3)n2)sc1C | -11 | 111 | · | ·
CC(C)CCN1C(=O)c2ccc(C34CC5CC(CC(C5)C3)C4)cc2C1=O | · | 113 | 99 | 94
COc1cc(C=NC2=NN(c3ccccc3)CC2)ccc1O | -39 | · | 81 | 63
CCOc1ccc(C2c3c(oc4cc(C)c(C)cc4c3=O)C(=O)N2c2ccccn2)cc1 (stereo not given) | -18 | 102 | 103 | 87
O=C(O)CC1COc2cc(F)ccc2N1Cc1ccccc1 (stereo not given) | 7 | 100 | · | ·

5 structures already listed, ordered by count of non-hydrogen atoms, largest number first:
SMILES | HCMV NEC inh | GIV Gai3 FP | Sa growth 42C | Sa growth 42C second temp
CCCOc1cccc(C2C3=C(CC(C)(C)CC3=O)Nc3ccccc3N2C(=O)C(F)(F)F)c1 (stereo not given) | -16 | 101 | · | ·
CCOc1ccc(C2c3c(oc4cc(C)c(C)cc4c3=O)C(=O)N2c2ccccn2)cc1 (stereo not given) | -18 | 102 | 103 | 87
CC(=O)N1c2ccc(S(=O)(=O)N3CCC(C(=O)NC4CCCC4)CC3)cc2CC1C (stereo not given) | -33 | 100 | 89 | 87
CCOc1ccc(N2C(=O)Nc3ccccc3C2(O)C(=O)N2CCCC2)cc1 (stereo not given) | -6 | 110 | 97 | 97
CCOC(=O)c1cc(C)n(C)c1C | -47 | · | 112 | 80

Further records follow:
SMILES | HCMV NEC inh | GIV Gai3 FP | Sa growth 42C | Sa growth 42C second temp
COc1ccc(Nc2cc(C(=O)NCc3cccs3)c3ccccc3n2)cc1 | 3 | 108 | 97 | 100
CCNC(=O)C1Cc2ccccc2CN1S(=O)(=O)c1ccc(F)cc1 (stereo not given) | -31 | · | 125 | 87
CCOC(=O)c1c(C)oc2ccc(OCC)cc12 | · | 98 | 87 | 101
COc1ccc(S(=O)(=O)N2CCC(C(=O)Nc3c(F)cccc3F)CC2)cc1OC | -25 | 105 | 95 | 83
CCCc1nnc(NC(=O)Cc2coc3c(C)c(C)ccc23)s1 | 4 | 109 | 109 | 96
CCOC(=O)Nc1ccc2c(CNC3CCCCC3)cc(=O)oc2c1 | -24 | · | 76 | 91
COc1ccc2c(CC(=O)OCc3cc(=O)n4c5c(sc4n3)CCCC5)coc2c1 | -22 | · | 87 | 88
COc1cccc(CNC(=O)CCCn2ncn3c(cc4occc43)c2=O)c1 | -34 | 101 | 107 | 88
Cn1c(=O)n(Cc2ccccc2Cl)c(=O)c2c1nc1n2CCN1c1ccccc1 | · | 104 | 102 | 96
Cc1cccc(OCCn2c(CNC(=O)c3ccccc3)nc3ccccc32)c1 | · | 105 | 116 | 73
OC(CNCCc1ccc(F)cc1)c1ccccc1 (stereo not given) | -4 | · | 126 | 93
CN(C(=O)COC(=O)c1ccc2c(c1)OCCO2)c1ccccc1 | -12 | · | 101 | 94
Cc1cc(C)c(NC(=O)Cn2cnc3c(oc4ccccc43)c2=O)c(C)c1 | · | 105 | 155 | 77
CCC(Sc1nc2cc3c(cc2c(=O)n1Cc1ccco1)OCO3)C(=O)Nc1ccccc1OC (stereo not given) | · | 100 | 113 | 93
O=C1NC(=O)C(=Cc2cc(Br)ccc2OCc2ccccc2)C(=O)N1 | 89* | 106 | · | ·
CSc1ncc(Cl)c(C(=O)Nc2cc(C)ccc2C)n1 | · | 101 | 85 | 87
O=C1C(=O)N(C2CCN(S(=O)(=O)c3ccc(F)cc3)CC2)CCN1Cc1ccc(F)cc1 | -25 | 102 | · | ·
CCCCN1C(=O)/C(=C2/C(=O)N(C)c3ccccc32)SC1=S | -3 | 94 | 97 | 84
O=C(NC1CCCC1)c1ccc2c(c1)N(Cc1ccccc1Cl)C(=O)c1ccccc1S2 | · | 106 | 94 | 97
CCNc1ccc(S(=O)(=O)C(F)(F)F)cc1NC(=O)Cc1ccccc1 | -13 | · | 106 | 101
Cc1cc(NC(=O)c2cc(=O)c3ccccc3o2)n(-c2ccccc2C)n1 | -34 | · | 118 | 93
Cc1ccc(-n2ncc(C(=O)NCCN3CCN(C)CC3)c2C2CCN(C(=O)OC(C)(C)C)CC2)cc1 | · | 109 | 81 | 91
O=C(CSc1nnc(SCC2CC2)s1)N1CCC(C(F)(F)F)CC1 | -1 | 101 | 96 | 107
NCCCCC(=O)O | -22 | 101 | · | ·
CCn1c(-c2ccco2)nc2ccccc21 | · | 102 | 101 | 77
Cc1cc(C)c(C(=O)N2CCCC(C(=O)N3CCN(c4cccc(Cl)c4)CC3)C2)[nH]1 (stereo not given) | -29 | 100 | · | ·
O=C1CCNc2cc3ccccc3cc21 | -73 | 119 | 44 | 20
O=c1oc2ccccc2n1Cc1noc(-c2cncc(Br)c2)n1 | -2 | 105 | · | ·

Results in Sa growth 42C second temp, for some of the entries so far:
| SMILES | Sa growth 42C second temp |
| --- | --- |
| CCOc1ccc(CNS(=O)(=O)c2ccc3[nH]c(=O)ccc3c2)cc1 | 85 |
| Cc1ccc(NC(=O)c2ccc3c(=O)n(Cc4ccco4)c(=S)[nH]c3c2)cc1Cl | 86 |
| CN(C(=O)CSc1nc2c(c(=O)[nH]1)CCC2)C1CCCCC1 | 89 |
| CC(C)(CNC(=O)c1cccc(S(=O)(=O)N2CCOCC2)c1)N1CCOCC1 | 91 |
| CC(=O)OCCCc1nc2ccccc2n1C(C)=O | 83 |
| O=C(NCCS(=O)(=O)N1CCCC1)c1ccc2c(c1)OCO2 | 89 |

Three consecutive compounds from above, quoted:
SMILES | HCMV NEC inh | GIV Gai3 FP | Sa growth 42C | Sa growth 42C second temp
O=C(CSc1nnc(SCC2CC2)s1)N1CCC(C(F)(F)F)CC1 | -1 | 101 | 96 | 107
NCCCCC(=O)O | -22 | 101 | · | ·
CCn1c(-c2ccco2)nc2ccccc21 | · | 102 | 101 | 77
